Vif A3G: inhibitors of Vif binding to APOBEC3G peptide, primary screen, biochemical, TR-FRET, GST-Vif 1-94, biotin-A3G peptide, dose response retest (AID 1117319); TR-FRET GST-Vif / biotin-A3G peptide binding; higher % means a stronger effect; test concentration not given here; strong numbers were not always called active; inhibition, %; hits with a dose series show IC50 in µM; hit rate 0.57% among 260,000;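 active = above the screen mean plus three standard deviations and confirmed in dose response; inconclusive = results disagree or hit not tested in dose response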;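 also: Vif residues 1-94 fused to GST binding biotinylated APOBEC3G peptide 110-148; 0% = full assay without inhibitor and 100% = GST in place of GST-Vif; retest series ran down from 100 µM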
Bfl-1 A1 inh: inhibitors of the anti-apoptotic protein A1, read as caspase activation; caspase activation, % (concentration not given with the values); MEF A1-2A-BIM cells, Caspase-Glo 3/7 luminescence, 3 h; percent of clofoctol response, vehicle zero; hit rate 0.066% among 330,000;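 active = over half of replicate activation scores above 10%, or exactly half above 10 with the replicate mean above 10; inconclusive = replicate mean below 10 yet half the replicates above 10; inactive = over half of replicates below 10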;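 also: wells of about 30 µL received 50 nL stock; many hits fall short of the cut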
T cruzi repl: blocks replication of Trypanosoma cruzi; T. cruzi beta-gal in NIH3T3, luminescence, 90 h; inhibition, % (test concentration not listed); hit rate 1.4% among 300,000;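 active = mean inhibition across valid replicates above about 55%, limit read from the data; inconclusive = mean below that limit but half or more replicates reach it; inactive = mean below it, under half of replicates reach it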;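 also: signal also drops with host cell toxicity which is not excluded here; 0% = plate median of DMSO wells and 100% = zero luminescence signal; higher percent means less beta-gal luminescence so fewer parasites; stock transfer was 50 nL into about 50 µL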
Calb FLC: affects C. albicans growth with fluconazole | C. albicans CaCi-2 (fluconazole-resistant clinical isolate) + fluconazole, Alamar Blue growth, 48 h | growth inhibition, % (no concentration beside the values) | hit rate 0.57% among 300,000 | AID 1979;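 active = most replicates above 75%; inconclusive = exactly half above 75%; inactive = most below 75%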;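 also: all wells also contain fluconazole at 8 µg/ml as a sub-toxic cotreatment; 0% = median of DMSO wells and 100% = median of geldanamycin control wells; wells of about 8 µL received 7.5 nL stock; the first replicate is given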
RanGTP-Impb inh: inhibitors of RanGTP-importin-beta interaction, primary screen, biochemical, FRET, CFP-Ran, YFP-importin-beta, homogeneous | cell-free CFP-Ran/YFP-importin-beta FRET ratio | hit rate 1.1% among 300,000 | inhibition, % (test concentration not listed);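 active = most replicates above 15%; inconclusive = exactly half above 15%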;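 also: 0% = DMSO wells and 100% = Ran loaded with GDP instead of GTP; wells of about 40 µL received 100 nL stock; the first replicate is given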
Beta apoptosis: blocks beta cell apoptosis | AID 435005 | hit rate 0.8% among 300,000 | INS-1E cytokine-induced death, ATP luminescence, 48 h; percent of positive-control rescue, neutral wells zero | protection from apoptosis, % (test concentration not listed);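 active = all replicates at 75% or more, or half of them and the mean; inconclusive = half reach 75% but not the mean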;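 also: 0% = cytokine-treated negative control wells and 100% = positive control rescue; higher means more ATP so stronger rescue from cytokine killing; wells of about 40 µL received 100 nL stock; the first replicate is given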
LANA-H2B inh: blocks KSHV LANA binding to histone H2A/H2B | AID 2629 | cell-free LANA-H2A/H2B peptide, fluorescence polarization | inhibition, % (no concentration beside the values) | Q9QR71 | hit rate 0.6% among 320,000; in the data active = inhibition mostly above about 10%, no sharp cut-off; inactive = mostly below about 6.7%;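 also: stock transfer was 7.5 nL into about 10 µL; 0% = median of vehicle wells and 100% = median of positive control wells; one replicate is shown; the record names a cut of 25% in any replicate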
Target sequence (Q9QR71 whole entry, looked up): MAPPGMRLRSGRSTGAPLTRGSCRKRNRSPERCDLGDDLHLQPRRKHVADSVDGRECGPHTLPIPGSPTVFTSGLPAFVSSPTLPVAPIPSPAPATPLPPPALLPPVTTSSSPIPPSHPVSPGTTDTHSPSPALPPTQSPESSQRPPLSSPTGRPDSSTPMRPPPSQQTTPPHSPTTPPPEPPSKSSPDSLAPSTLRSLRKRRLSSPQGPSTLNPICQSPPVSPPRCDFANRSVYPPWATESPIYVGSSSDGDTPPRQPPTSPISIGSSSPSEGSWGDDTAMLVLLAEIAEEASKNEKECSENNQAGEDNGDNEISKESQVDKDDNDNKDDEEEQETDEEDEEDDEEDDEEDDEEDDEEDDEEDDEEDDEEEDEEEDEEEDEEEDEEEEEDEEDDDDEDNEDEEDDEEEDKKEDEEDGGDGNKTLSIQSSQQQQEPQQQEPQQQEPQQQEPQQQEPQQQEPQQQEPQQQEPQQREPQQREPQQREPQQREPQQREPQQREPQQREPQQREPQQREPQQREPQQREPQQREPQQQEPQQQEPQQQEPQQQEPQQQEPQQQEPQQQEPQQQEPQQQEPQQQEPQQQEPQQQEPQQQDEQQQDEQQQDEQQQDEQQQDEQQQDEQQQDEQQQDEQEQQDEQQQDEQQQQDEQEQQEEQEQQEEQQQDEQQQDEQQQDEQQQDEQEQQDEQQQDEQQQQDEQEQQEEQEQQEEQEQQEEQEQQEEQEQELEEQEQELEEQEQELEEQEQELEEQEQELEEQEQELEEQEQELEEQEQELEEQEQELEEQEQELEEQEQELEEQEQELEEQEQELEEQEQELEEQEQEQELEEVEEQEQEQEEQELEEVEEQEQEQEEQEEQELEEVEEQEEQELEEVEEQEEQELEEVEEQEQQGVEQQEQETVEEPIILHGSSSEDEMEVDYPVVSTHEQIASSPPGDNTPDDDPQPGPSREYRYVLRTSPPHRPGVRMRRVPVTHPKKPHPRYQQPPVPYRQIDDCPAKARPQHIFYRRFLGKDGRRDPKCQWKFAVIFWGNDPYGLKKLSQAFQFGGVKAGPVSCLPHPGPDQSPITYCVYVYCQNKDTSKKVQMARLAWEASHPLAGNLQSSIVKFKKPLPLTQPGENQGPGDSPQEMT
MLL AF4-AF9 inh: blocks AF4 peptide binding to human AF9. P42568. AlphaScreen, biotin-AF4 peptide binding to FLAG-AF9. inhibition, % at 10 µM. hit rate 0.47% among 350,000. AID 651704;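 active = every replicate reaching a set inhibition limit, whatever the replicate mean, cut at about 25% in these data; inconclusive = mean inhibition reaches that limit but some replicates miss it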;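 also: 0% = plate neutral control median and 100% = total signal loss; the record names both 10 and 1 µM as test concentration; the first replicate is given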
Numbers without * were called inactive; ? = inconclusive; · = not tested or not shown.

Values in the order: Vif A3G, Bfl-1 A1 inh, T cruzi repl, Calb FLC, RanGTP-Impb inh, Beta apoptosis, LANA-H2B inh, MLL AF4-AF9 inh
Cc1cccc(N(CC(=O)NC2CCCC2)C(=O)c2csnn2)c1C
 : ·, -0.5, -4.2, -5.7, -1.4, -2.2, -0.8, -1.3
Oc1ccccc1N1CCN(c2nnnn2-c2ccccc2)CC1
 : 6.9%, 0.0, 0.4, 23.9, -0.4, -4.4, -1.7, -44.1
O=C(OCCCc1cc2ccccc2c(=O)o1)c1ccc(F)cc1
 : ·, -1.1, ·, ·, ·, -7.1, -2.1, 0.6
O=C(Cn1[nH]c(=O)c2ccccc2c1=O)NC1CCN(Cc2ccccc2)CC1
 : 6.6%, -0.1, 8.5, -2.7, ·, -3.3, -2.1, ·
CCCCn1c(N)c(N(CC(C)C)C(=O)c2cc(=O)[nH]c3ccccc23)c(=O)[nH]c1=O
 : 0.6%, 0.7, -2.2, 1.8, -1.5, ·, -4.2, 1.4
CC(=O)Nc1ccc(C(=O)Nc2cccc(-c3cnc4ccccc4n3)c2)cc1
 : 67.9%, ·, -23.0, -2.7, -4.8, ·, ·, -1.8
CC(C)CC1NC(=O)N(CC(=O)Nc2cccc(Br)c2)C1=O (stereo not drawn)
 : -13.0%, 0.5, ·, ·, ·, 1.0, 1.9, 0.6
CCCCCOC(=O)C(C)Sc1n[nH]c(=O)[nH]c1=O (stereo not drawn)
 : -1.4%, 0.4, -10.4, -0.7, 0.7, 1.5, -0.5, -3.1
CCOCCCNC(=O)C(NC(=O)c1ccc2c(c1)OCO2)c1ccc(OC)cc1 (stereo not drawn)
 : ?, 1.5, 8.4, 1.1, 5.6, 1.2, -4.4, ·
CC1CN(c2nnnn2-c2ccccc2)CC(C)O1 (stereo not drawn)
 : -1.8%, -0.2, -2.9, -5.5, -3.2, 4.1, 1.6, ·

Rewritten field by field: four of the compounds above.
> CCOCCCNC(=O)C(NC(=O)c1ccc2c(c1)OCO2)c1ccc(OC)cc1 (stereo not drawn)
  Vif A3G = ?	Bfl-1 A1 inh = 1.5	T cruzi repl = 8.4	Calb FLC = 1.1	RanGTP-Impb inh = 5.6	Beta apoptosis = 1.2	LANA-H2B inh = -4.4	MLL AF4-AF9 inh = ·
> CC(C)CC1NC(=O)N(CC(=O)Nc2cccc(Br)c2)C1=O (stereo not drawn)
  Vif A3G = -13.0%	Bfl-1 A1 inh = 0.5	T cruzi repl = ·	Calb FLC = ·	RanGTP-Impb inh = ·	Beta apoptosis = 1.0	LANA-H2B inh = 1.9	MLL AF4-AF9 inh = 0.6
> CC1CN(c2nnnn2-c2ccccc2)CC(C)O1 (stereo not drawn)
  Vif A3G = -1.8%	Bfl-1 A1 inh = -0.2	T cruzi repl = -2.9	Calb FLC = -5.5	RanGTP-Impb inh = -3.2	Beta apoptosis = 4.1	LANA-H2B inh = 1.6	MLL AF4-AF9 inh = ·
> Oc1ccccc1N1CCN(c2nnnn2-c2ccccc2)CC1
  Vif A3G = 6.9%	Bfl-1 A1 inh = 0.0	T cruzi repl = 0.4	Calb FLC = 23.9	RanGTP-Impb inh = -0.4	Beta apoptosis = -4.4	LANA-H2B inh = -1.7	MLL AF4-AF9 inh = -44.1

New compounds follow:
Values in the order: Vif A3G, Bfl-1 A1 inh, T cruzi repl, Calb FLC, RanGTP-Impb inh, Beta apoptosis, LANA-H2B inh, MLL AF4-AF9 inh
COc1cc2c(cc1OC)CN(C(=O)c1ccc(S(=O)(=O)N3CCCC3)cc1)CC2
 : -2.5%, 2.0, 14.8, 16.8, 2.7, 0.1, -9.4, -3.8
CCOc1ccccc1NC(=O)C1CCC(CNc2c(N3CCCCC3)c(=O)c2=O)CC1 (stereo not drawn)
 : -4.3%, 0.4, 11.8, -2.5, 2.8, 5.9, -1.5, -2.4
COc1cc(C(=O)NC(C)Cc2cccs2)cc(OC)c1OC (stereo not drawn)
 : ·, -0.7, 7.2, -8.4, 3.6, 2.5, -3.8, -3.7
O=C(OC(C(=O)Nc1ccc(Cl)cc1C(F)(F)F)c1ccccc1)c1c(Cl)cccc1Cl (stereo not drawn)
 : ·, 0.3, 23.3, 1.4, -2.8, 0.6, 2.7, -0.9
COC(=O)c1[nH]c2ccccc2c1NC(=O)Oc1ccccc1
 : 5.2%, -1.2, 3.3, -7.4, -8.5, ·, -3.0, ·
CCCC(=O)Nc1nc2ccc(OCC)cc2s1
 : -2.6%, -2.6, 34.2, -3.4, 4.1, 1.3, 4.0, -0.2
O=C(CN1CCN(S(=O)(=O)c2ccc(Br)cc2)CC1)Nc1ccccc1C(=O)c1ccccc1
 : -4.1%, -1.4, 56.0*, 1.7, 0.4, 18.6, -2.7, ·
O=C(N/N=C1\CCc2ccccc21)c1ccccc1Cl
 : 21.4%, -1.1, 10.6, -3.5, 0.4, 2.6, -0.2, 2.0
CCC(=O)Nc1nc2nc(-c3ccccc3)cc(=O)n2[nH]1
 : 15.3%, 0.7, 2.4, -3.9, -2.4, -1.0, -1.4, 6.4
CCc1ccc(C(CC(=O)O)N2Cc3ccccc3C2=O)cc1 (stereo not drawn)
 : 2.8%, 2.3, 2.8, 13.2, 6.1, -2.2, 1.8, -1.4
CN(/N=C/c1cccnc1)C1=NS(=O)(=O)c2ccccc21
 : ·, -0.3, -8.6, -0.3, -1.1, -1.0, -6.3, -66.0
COc1ccc(OCC(=O)OCC(=O)c2ccc(OC)c(F)c2)cc1
 : 3.3%, 1.0, ·, ·, ·, -8.4, 0.1, -1.9
COc1ccc(/C=N/Nc2nnc(-c3ccccc3)c(=O)[nH]2)cc1
 : ·, 0.0, -19.2, 8.5, 1.6, ·, 3.0, ·
Cc1ccc(NC(=O)COC(=O)CCC(=O)c2cccs2)cc1
 : -0.6%, 0.8, -12.3, 11.3, 2.9, ·, -1.7, 1.6
CC(=O)c1c(OC(=O)c2ccccc2)ccnc1C(F)(F)F
 : 1.8%, -0.2, ·, ·, ·, -3.6, -3.4, 0.2
Nc1nc(Cn2nnc(-c3ccccc3Cl)n2)nc(N2CCOCC2)n1
 : -0.9%, -0.2, 5.6, 13.5, -2.5, -7.5, -1.7, ·
CCCNC(=O)c1ccc(N2CCC3(CC2)CC(c2cccc(Br)c2)=NO3)c(NC(=O)c2ccco2)c1
 : ·, 0.0, 44.5, 63.0, -1.5, 24.4, 2.3, ·
Cc1ccc(OCCn2c3ccccc3n3nc(C)c(=O)nc23)cc1
 : ·, 0.0, 16.4, 5.8, -1.7, 5.5, 4.8, ·
CC(=O)Nc1ccc(Cl)cc1C(=O)O
 : -1.3%, 0.5, 0.6, 22.5, 0.5, ·, 2.2, ·
COC(=O)c1ccc(NC(=O)C2CCN(C(=O)Nc3ccccc3)CC2)cc1
 : -3.0%, -0.2, ·, ·, ·, -1.4, -0.4, -1.5

Following part
structure	Vif A3G	Bfl-1 A1 inh	T cruzi repl	Calb FLC	RanGTP-Impb inh	Beta apoptosis	LANA-H2B inh	MLL AF4-AF9 inh
Cc1cc(N/N=C/c2c[nH]c3ccccc23)c2ccccc2n1	-8.2%	0.6	-6.5	20.4	3.8	-14.8	-1.1	1.4
O=C(CN1CCN(C(=S)NC2CCCC2)CC1)Nc1ccc(Oc2ccccc2)cc1	·	-0.1	7.3	-10.4	-2.4	-2.3	1.7	·
CCc1ccc(C2CC(=O)N(c3cccc(F)c3)C3=C2C(=O)OC3)cc1 (stereo not drawn)	4.1%	0.1	-11.3	-3.2	-0.7	-7.4	1.6	4.4
CSc1ccc(/C=C/C(=O)c2ccc(NC(C)=O)cc2)cc1	-0.1%	0.8	-11.6	0.7	-13.8	8.8	-0.6	·
CCOC(=O)N1CCN(C(=O)c2ccc(NC(C)=O)cc2)CC1	1.4%	0.7	-6.5	1.7	0.3	·	-19.4	·
CC(CNC(=O)COC(=O)c1cccs1)c1ccccc1 (stereo not drawn)	-8.7%	-0.6	·	·	·	-5.0	0.5	-0.8
c1ccc(N2CCN(Cc3cn4ccccc4n3)CC2)cc1	5.7%	0.7	-16.1	-17.2	4.0	-0.3	2.3	1.3
O=C(CN1C(=O)NC2(CCCCC2)C1=O)Nc1ccc2c(c1)OCCCO2	2.0%	1.4	·	·	·	-8.3	-6.9	-1.3
CC(C)c1nc(N2CCOCC2)c(C#N)c2c1COC(C)(C)C2	16.6%	0.1	12.5	3.1	6.0	-3.4	-2.1	·
Cc1cc(C)cc(C(=O)Nn2cnnc2)c1	2.5%	-0.9	3.0	16.5	5.6	-0.8	-4.8	-2.2
CC(=O)Nc1ccc(/C(C)=N/NS(=O)(=O)c2ccc(C)cc2)cc1	?	-0.3	-13.0	-2.2	-1.4	6.6	-5.1	·
NNC(=O)C1CCCn2c1nc1sc3c(c1c2=O)CCCC3 (stereo not drawn)	-4.3%	0.6	4.2	2.3	4.5	-1.0	1.3	·
Cc1ccc(SCC(=O)c2c(C)[nH]c3ccccc23)cc1	·	0.4	11.8	?	-2.2	-21.7	-2.7	2.4
CC(c1ccco1)N(C(=O)c1ccccc1F)c1ccccn1 (stereo not drawn)	-13.0%	-0.9	-10.0	-19.0	?	-5.5	7.5	-2.6
COc1ccccc1NC(=O)c1c(NC(=O)c2ccco2)sc2c1CCC2	-1.7%	0.0	22.6	3.0	2.8	11.4	-0.2	·
COc1cc(C)ccc1OCc1cc(C(=O)N2CCN(C)C[C@@H]2c2ccccc2)no1	·	-0.1	3.5	-1.6	-0.3	-0.5	-0.2	3.5
Fc1ccc(CNCc2ccccc2C(F)(F)F)cc1	4.1%	-0.1	-4.7	-1.6	2.7	2.7	-3.0	·
Cc1ccc(OCCn2cc(C=O)c3ccccc32)cc1	5.7%	0.3	8.1	-2.6	1.7	0.5	3.4	3.9
COC(=O)c1c(NC(=O)COC(=O)C2CCC2)sc(C)c1C	0.5%	-0.7	11.0	0.0	-4.5	-3.0	2.6	-1.5
CC(C)CCOC(=O)C(C)Sc1n[nH]c(=O)[nH]c1=O (stereo not drawn)	5.4%	0.0	-6.9	8.6	1.9	-5.7	2.1	9.1
CCC(=O)Nc1ccccc1C(=O)N1CCCC1	2.6%	-0.1	-7.1	-1.2	-4.0	-1.8	-3.9	·
CCn1c(=O)n(CC)c2cc(N3CCCC3)c(NC(=O)c3c(F)cccc3F)cc21	18.8%	-1.4	9.2	14.7	0.8	0.2	-0.8	-4.5
CC(=O)c1cccc(NS(=O)(=O)c2ccc(N/C=C\C(=O)c3ccc(C)cc3)cc2)c1	-3.1%	-0.5	-1.2	-21.8	-3.2	45.4	-0.4	·
CC(=O)N1c2ccccc2NC2=C(C(=O)CCC2)C1c1cccnc1 (stereo not drawn)	12.1%	0.2	11.2	-4.3	-1.2	-8.2	1.6	·
O=S(=O)(NC(=S)c1ccccc1)c1ccc(Cl)cc1	3.3%	-0.9	-1.8	-3.5	1.2	-13.3	1.2	-2.2
C/C=C/c1ccc(OC)c(OC(C)=O)c1	-4.1%	0.9	-0.8	29.9	-0.8	2.1	-3.5	·
NNC(=O)c1cc(-c2ccco2)[nH]n1	·	-0.5	-11.8	-4.1	2.7	-1.3	-4.7	1.0
